Compound activity as filed in PubChem.
SARS PLP yeast: inhibitors of SARS-CoV papain-like protease in yeast; Potency, µM (series often up to 32.9 µM), for inactives: at the highest dose activity, positive = growth rescue; S. cerevisiae expressing SARS-CoV PLpro, growth rescue; control for the full effect not named in the record; 0.19% of 330,000 active; note: 0% is about no effect; nearly all actives have a fitted effect of over 55% in size; growth read by luminescence after 48 h
Cruzain noTriton: inhibitors of Trypanosoma cruzi cruzain without detergent | P25779 | purified cruzain, Z-FR-AMC fluorescence, no detergent | Potency, µM, without a hit: max response, negative = inhibition, actives largely listed as inhibitors | 2.3% of 200,000 active; active = well fitted curve in the direction sought with a large enough effect; inconclusive = small, poorly fitted or top-dose-only effect, or another doubt; inactive = no such curve, though single readings can be large; an effect the other way counts as inactive or inconclusive;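 note: plate controls were enzyme without inhibitor for no effect and buffer without enzyme for full effect; nearly all actives have a fitted effect of over 40% in size; top concentration of the series not given in the record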
Target sequence (P25779 123-467 limits assumed): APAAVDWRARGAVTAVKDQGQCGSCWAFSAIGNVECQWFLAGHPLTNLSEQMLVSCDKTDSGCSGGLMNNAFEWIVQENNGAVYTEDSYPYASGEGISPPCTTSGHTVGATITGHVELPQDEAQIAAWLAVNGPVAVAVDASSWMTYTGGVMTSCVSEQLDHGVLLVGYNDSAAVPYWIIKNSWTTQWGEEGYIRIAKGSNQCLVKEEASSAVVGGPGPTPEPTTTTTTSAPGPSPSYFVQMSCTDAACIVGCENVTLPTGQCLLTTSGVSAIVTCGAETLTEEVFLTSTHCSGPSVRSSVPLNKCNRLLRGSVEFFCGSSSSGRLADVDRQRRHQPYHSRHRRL
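Purified cruzain at 1.5 nM, pre-incubated 15 min with compound at room temperature in 100 mM sodium acetate pH 5.5, 5 mM DTT, 0.00005% Triton X-100. Reaction started with 2 uM Z-FR-AMC; AMC fluorescence increase over 60 s gives rate.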
MARV entry inh: Marburg virus entry inhibition | Marburg virus pseudotyped entry inhibition, cell reporter; control for the full effect not named in the record; about a third of the inactives were read at about 46 µM | Potency, µM (series often up to 37.8 µM), for inactives: at the top dose activity change, negative = inhibition, usual class: inhibitors | 1.8% of 300,000 active | AID 540276; active = well fitted inhibition curve with a large enough effect; inconclusive = small, poorly fitted or top-dose-only effect, or effect the other way; inactive = flat fitted curve, though single readings scatter; tested in HEK293 cells; about a fifth of its hits are not listed in these tables; note: % is set by controls: 0 for no effect and ±100 for the full control effect; luciferase read-out
LASV entry inh: Lassa virus entry inhibition. Lassa virus pseudotype entry inhibition, cell reporter; control for the full effect not named in the record. Potency, µM (series often up to 37.9 µM), for the others: at the top dose activity change, negative = inhibition, most hits filed as inhibitors. 1.2% of 300,000 active. AID 540256; active means well fitted inhibition curve with a large enough effect; inconclusive means small, poorly fitted or top-dose-only effect, or effect the other way; inactive means flat fitted curve, though single readings scatter; tested in HEK293 cells; note: % is set by controls: 0 for no effect and ±100 for the full control effect; nearly all actives have a fitted effect of over 50% in size; luciferase read-out
Cruzain Triton: inhibitors of Trypanosoma cruzi cruzain with detergent; P25779; purified cruzain, Z-FR-AMC fluorescence, 0.01% Triton; Potency, µM, inactives show max response, negative = inhibition, actives largely listed as inhibitors; 0.43% of 200,000 active; AID 1478; active = well fitted curve in the direction sought with a large enough effect; inconclusive = small, poorly fitted or top-dose-only effect, or another doubt; inactive = no such curve, though single readings can be large; an effect the other way counts as inactive or inconclusive;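 note: plate controls were neutral wells for no effect and buffer without enzyme for full effect; nearly all actives have a fitted effect of over 40% in size; top concentration of the series not given in the record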
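In this qHTS format, compounds are incubated with 1.5 nM cruzain for 15 min at room temperature before 2 uM Z-FR-AMC is added. Release of AMC is followed at 360/450 nm, and progress is taken as the 60 s fluorescence difference.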
RE007 growth inh: less growth of the S. pombe RE007 Vpr strain. S. pombe RE007 Vpr strain, BacTiter-Glo ATP luminescence, 24 h; control for the full effect not named in the record. Potency, µM (series often up to 92.2 µM), without a hit: top-dose activity change, negative = less growth. 0.21% of 360,000 active. AID 651644; active = well fitted falling curve with a large enough effect; inconclusive = small, poorly fitted or top-dose-only effect; inactive = no such curve, though single readings can be large or run the other way;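 note: % is set by controls: 0 for no effect and ±100 for the full control effect; nearly all actives have a fitted effect of over 50% in size; the assay follows cell death caused by Vpr and the record does not say whether a fall means rescue or toxicity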
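Fission yeast RE007 carrying one integrated HIV-1 vpr copy, seeded at OD 0.01 in PMG+AL medium with 23 nL pinned compound. Grown 24 h at 30 degrees; viability read by BacTiter-Glo luminescence after 5 min.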
2A StopGo: FMDV 2A StopGo reporter, luciferase signal; AID 1159524; human cells with a luciferase reporter of 2A StopGo recoding; control for the full effect not named in the record; Potency, µM (top dose mostly 57.9 µM), inactives show at the top dose signal change, negative = less light; 1.2% of 410,000 active; active = well fitted falling curve with a large enough effect; inconclusive = small, poorly fitted or top-dose-only effect; inactive = no such curve, though single readings can be large or run the other way; tested in HEK293T cells; note: % is set by controls: 0 for no effect and ±100 for the full control effect; nearly all actives have a fitted effect of over 45% in size; luciferase light after 4 h
NS1 inh: blocks influenza NS1 protein function | S. cerevisiae slowed by influenza A NS1, growth recovery by OD600 | Potency, µM (top dose mostly 46.1 µM), inactives show at the top dose activity, positive = more growth | 0.4% of 270,000 active; note: actives are rising curves; nearly all actives have a fitted effect of over 50% in size
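Growth recovery, yeast-based: influenza A NS1 expressed in S. cerevisiae causes slow growth, and suppressors are detected by OD600. The parent strain without NS1 is used as positive control.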
* marks the source's active call; other numbers are inactive results; u = inconclusive; x = not tested or not shown; [ ] = dose if it differs, or a comment. Unless noted, calls come from the whole dose curve; as a rule, active means well fitted rising curve with a large enough effect; inconclusive means small, poorly fitted or top-dose-only effect; inactive means no such curve, though single readings can be large or run the other way. Potency is the fitted concentration of half-maximal effect. Random draw from the library, and some 4.7% of all compounds hit somewhere here.

smiles | MARV entry inh | SARS PLP yeast | NS1 inh | Cruzain noTriton | LASV entry inh | RE007 growth inh | Cruzain Triton | 2A StopGo
Cc1onc(NC(=O)NC(=O)c2ccccc2F)c1Br | u | -7% | -7% | x | u | 8% | x | 31%[activator]
COC(=O)c1scc(-c2ccc(C)cc2)c1S(=O)(=O)Nc1cc(C)c(Cl)cc1OC | x | x | x | 4% | -15%[46.1 µM] | x | 9.9% | -1%
Fc1cccc(CN2CCN(C(=S)NCCc3ccccc3)CC2)c1 | -17%[46.1 µM] | -1% | x | x | 1% | -14% | x | 16%
CC(C)CC(=O)NC(=S)NNC(=O)c1cccc([N+](=O)[O-])c1 | -28%[46.1 µM] | 2% | x | x | -24% | 10% | x | -20%
CSc1ccc(-c2nc3cc(C)ccn3c2Nc2ccc(C)cc2)cc1 | 5%[46.1 µM] | x | x | -13% | 11%[46.1 µM] | x | 0.9% | 26%
COc1ccccc1NC(=O)c1ccc(NC(=O)CNC(=O)c2ccc(OC)c(OC)c2)cc1 | -17%[46.1 µM] | 0% | 1% | x | 11%[46.1 µM] | 5% | x | 6%
O=C(CN1C(=O)c2ccccc2S1(=O)=O)Nc1cccnc1 | 0% | 8% | 3% | -13% | 0% | 9% | -1.2% | 6%
CC(C)C(=O)Nc1c2c(nn1-c1ccc([N+](=O)[O-])cc1)CS(=O)(=O)C2 | 3%[46.1 µM] | 1% | -3% | x | 10%[46.1 µM] | -11% | x | -5%
COc1ccc(NC(=O)c2cc(C)nn2-c2ccccc2)cc1 | u | -1% | -3% | x | 3% | 6% | x | 68%[activator]
c1ccc(-n2ncc3c(N4CCC5(CC4)OCCO5)ncnc32)cc1 | u | -6% | 3% | 6% | u | -17% | -3.8% | 22%
O=C(N=Nc1c(O)[nH]c2ccc([N+](=O)[O-])cc12)c1cc(-c2ccccc2Cl)nc2ccccc12 | u | 6% | 26% | -6% | -19% | 5% | -1.4% | -18%
O=C(Nc1cccc(C(F)(F)F)c1)c1cnn(-c2cccc(F)c2)c1C1CCNCC1 | x | x | x | -6% | 38%[46.1 µM] | x | -0.8% | -18%
Cc1ccc(N2C(=O)CC(Cc3cc(C)cc(C)c3)C2=O)cc1 (centres undefined) | 5%[46.1 µM] | -1% | -5% | x | 1%[46.1 µM] | -9% | x | -27%
COc1cccc(Sc2cc(N3CCOCC3)nc(-c3ccccc3)n2)c1 | u | -1% | -7% | -4% | -17% | -5% | -5.9% | -11%
COC(=O)C1(CCSC)NC(c2ccco2)C2C(=O)N(C)C(=O)C21 (centres undefined) | 3% | 9% | 0% | -7% | 16% | 17% | 2.1% | 22%
COc1ccc(Cl)cc1NC(=O)c1sc2nc3n(c(=O)c2c1C)CCC3 | x | x | x | -10% | -24%[46.1 µM] | x | -1.1% | -7%
COC(=O)c1cc(=O)nc2sc3ccccc3n12 | u | 9% | 5% | 1% | 14% | 24% | -3.9% | 22%
O=C(O)c1c2c(nc3ccccc13)CCCCC2 | 0% | 19% | 14% | 2% | 12% | 4% | -2.2% | 0%
COc1ccc2nc(N(CCN(C)C)C(=O)c3ccc(C(=O)c4ccccc4)cc3)sc2c1 | -8%[46.1 µM] | -1% | -28% | x | u | -7% | x | -18%
Cc1cc(=O)c(C(=O)O)nn1-c1ccccc1C(F)(F)F | 7%[46.1 µM] | -3% | -8% | x | -18% | 2% | x | -11%
CC(=O)Oc1ccc([N+](=O)[O-])cc1N1C(=O)c2ccccc2C1=O | -17% | 16% | 5% | -24% | u | -6% | -12% | -16%
CC1N(C)c2cccc3cccc(c23)N1C | 20% | -6% | u | -12% | -8% | u | -11% | u
O=C(NCCN1CCCC1)c1ccc2c(c1)N(Cc1cccc(Cl)c1)C(=O)c1ccccc1S2(=O)=O | x | 0% | 9% | x | x | -2% | x | 4%
Cc1ccc(C(=O)NC23CC4CC(CC(C4)C2)C3)c(Cl)c1 | x | 3% | -3% | x | x | 5% | x | 2%
C1CCc2c(nc3nnnn3c2N2CCOCC2)C1 | -10% | 4% | 3% | -11% | 11% | 6% | 0.8% | 2%
O=C(COc1ccccc1)NCc1nnc2c3ccccc3c(-c3ccccc3)nn12 | x | x | 4% | -1% | x | 5% | -7.6% | -13%
Oc1ccccc1C=NNC(=S)Nc1ccc(F)cc1 | u | x | x | x | u | -22% | x | 34%[activator]
COc1ccc(CCNCc2ccsc2)cc1OC | 4%[46.1 µM] | u | 8% | x | u | -12% | x | 0%
Cc1cc(-c2n[nH]c(=S)n2/N=C/c2ccc(C)o2)n[nH]1 | 0%[46.1 µM] | 0% | 5% | x | 2% | -19% | x | -10%
CCNC(=S)Nc1ccc(Cl)cc1Cl | 0% | u | 3% | -6% | u | 11% | -6.5% | 3%
Cc1csc(=O)n1CCC(=O)OCC(=O)c1ccc(Br)cc1 | 8% | 6% | x | x | 22% | 6% | x | 37%[activator]
Cc1ccc(NCC(=O)N=Nc2c(O)[nH]c3ccc([N+](=O)[O-])cc23)cc1 | -2% | -1% | 4% | x | -20% | -21% | x | 17%
COc1ccccc1NC(=O)Cn1c(SCC(=O)NCc2ccccc2)nc2ccccc21 | x | x | x | 2% | 24%[46.1 µM] | x | 0.2% | 41%[activator]
CCOc1ccccc1-c1nnc(SCC(=O)NC2CC2)n1CC | u | 5% | 16% | x | -9% | 3% | x | 11%
COc1ccc(CN2C(=O)C(C)Oc3ccccc32)cc1 (centres undefined) | x | 0% | 2% | x | x | 4% | x | -9%
O=c1c2ccccc2c(C=NCCCN2CCOCC2)c(O)n1Cc1ccc2c(c1)OCO2 | -17%[46.1 µM] | 2% | x | x | 9% | -4% | x | 19%
CC(=O)N1CCN(CC(=O)Nc2cc(S(=O)(=O)N3CCOCC3)ccc2C)CC1 | -6%[46.1 µM] | -2% | x | x | x | 22% | x | 9%
COc1ccc(Nc2nc(-c3cccs3)nc3ccccc23)cc1 | u | -52% | 12% | 6% | -22% | 6% | -12% | u
O=C(COc1ccc2ccccc2c1)N1CCN(c2ccccc2O)CC1 | -3% | 2% | -65% | -13% | u | -16% | 1.6% | -14%
NC(=O)C1(N2CCCCC2)CCN(Cc2ccccc2)CC1 | 2% | 12% | 0% | -15% | -2% | -5% | 9.8% | x
CCOc1ccc(NC(=O)C2CCN(S(=O)(=O)c3c(C)noc3/C=C/c3c(C)cc(C)cc3C)CC2)cc1 | x | x | x | -13% | 6%[46.1 µM] | x | -0.8% | u
CCN(CC)CCN(C(=O)C1=COCCO1)c1nc2cc(C)cc(C)c2s1 | 11µM* | -3% | -5% | x | -14% | -9% | x | u
COc1ccc(/C=C(\NC(=O)c2ccc(C)cc2)C(=O)NCCCN2CCOCC2)cc1OC | 0%[46.1 µM] | 1% | -1% | x | 8%[46.1 µM] | 4% | x | -11%
COC(=O)c1c(SC)nc2ccccc2c1OCc1ccccc1Cl | x | x | x | 7% | 28%[46.1 µM] | x | -1.4% | -9%
Cc1cc(C)c(C)c(Oc2ncnc(N)c2[N+](=O)[O-])c1 | 0% | 15% | 11% | 4% | 7% | -2% | -0.5% | u
COc1ccccc1N1CCN(C(=O)c2ccc(N(C)S(=O)(=O)c3ccccc3)cc2)CC1 | u | 0% | -27% | x | u | 23% | x | -1%
CC(C)c1ccc(NC(=O)N2CCc3ccccc3C2)cc1 | u | -1% | x | x | u | 3% | x | 39%[activator]
O=C(c1ccc2c(c1)OCO2)N1CCN(c2cccc(C(F)(F)F)c2)CC1 | u | 1% | 11% | x | u | -6% | x | -20%
COc1cc(/C=C/C(=O)O)cc(OC)c1 | x | 3% | -32% | x | x | -7% | x | -2%
O=C(NCCCNC(=O)c1cnccn1)c1ccc(Cl)cc1 | 14%[46.1 µM] | 0% | 5% | x | 9%[46.1 µM] | -1% | x | -4%
CCOC(=O)C1=C(Nc2ccc(C)cc2)CC(C)(O)C(C(=O)OCC)C1c1ccccc1 (centres undefined) | 0% | 12% | u | 3% | 3% | -20% | -5.4% | 18%
COc1ccc(-n2ncc3c(NCC(C)C)ncnc32)cc1 | u | -7% | -11% | 3% | u | 15% | -2.7% | -30%
CCOC(=O)c1cn(CC)c2cc(N3CCOCC3)c(F)cc2c1=O | 0% | 13% | -3% | 0% | 0% | -21% | -1.9% | -8%
COc1cc(C2NC(=O)c3c(sc4c3CCN(C)C4)N2)ccc1OC(=O)c1ccccc1 (centres undefined) | u | x | x | -7% | u | x | -7.3% | 18%
Cc1ccc2[nH]c(CNC(=O)C3CCCCC3)cc2c1 | u | -4% | -4% | x | 14%[46.1 µM] | 19% | x | 24%
COc1ccc([N+](=O)[O-])cc1NC(=O)C1(c2ccccc2)CCOCC1 | -3%[46.1 µM] | 0% | x | x | x | 2% | x | -15%
CCC(C)NC(=O)c1ccccc1-c1ccccc1C(=O)NC(C)CC (centres undefined) | 17%[46.1 µM] | 0% | -5% | x | u | -4% | x | -8%
Cc1cc(C)nc(N2C(=O)CC(Cc3ccc(Cl)cc3)C2=O)n1 (centres undefined) | 9%[46.1 µM] | 0% | 0% | x | -15% | -5% | x | -13%
CCC1=Nc2cc(C(=O)NC3CCC(C)CC3)ccc2Sc2ccc(C)cc21 (centres undefined) | u | x | x | -26% | u | x | -5.0% | -12%
O=C(CCc1nc2ccccc2[nH]1)NCc1ccc2c(c1)OCO2 | 14% | 4% | 4% | 10% | 1% | -5% | 4.8% | 0%
COCCSc1ccccc1C(=O)NCc1cccnc1 | 5%[46.1 µM] | 0% | 2% | x | 0%[46.1 µM] | -1% | x | -7%
Cn1c(Oc2ccccc2)nc2c1c(=O)n(Cc1ccc(Cl)cc1Cl)c(=O)n2C | x | x | x | -2% | -7%[46.1 µM] | x | -1.3% | -20%
Cc1c(C)n(CCC(=O)O)c2ccccc12 | -15%[46.1 µM] | 0% | -42% | x | 3%[46.1 µM] | -4% | x | -12%
